High-throughput results: PubChem, National Center for Advancing Translational Sciences (NCATS)
ERK AVP block: blocks ERK signaling stimulated by vasopressin; actives 0.99% (n = 72,000); Potency, µM (doses to about 57.5 µM), for inactives: at the top dose activity, negative = inhibition, usual class: inhibitors; HEK293-V1b, vasopressin-stimulated pERK AlphaScreen; note: potency is the fitted concentration of half-maximal effect; % is set by controls: 0 for no effect and ±100 for the full control effect; nearly all actives have a fitted effect of over 55% in size
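Overnight-seeded V1b-HEK293 cells in 1% FBS got compound, then vasopressin (25 nM final, 5 min, 37C), then lysis buffer. AlphaScreen detection of phospho-ERK; activity normalized to basal and full-stimulation controls.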
ALOX15 inhib: blocks human 15-lipoxygenase activity; Potency, µM (doses to about 57.1 µM), without a hit: at the highest dose activity change, negative = inhibition, most hits filed as inhibitors; AID 887; purified 15hLO-1, xylenol orange hydroperoxide absorbance; actives 1.4% (n = 74,000); note: potency is the fitted concentration of half-maximal effect; % is set by controls: 0 for no effect and ±100 for the full control effect; nearly all actives have a fitted effect of over 55% in size
Target sequence (P16050 whole entry, looked up): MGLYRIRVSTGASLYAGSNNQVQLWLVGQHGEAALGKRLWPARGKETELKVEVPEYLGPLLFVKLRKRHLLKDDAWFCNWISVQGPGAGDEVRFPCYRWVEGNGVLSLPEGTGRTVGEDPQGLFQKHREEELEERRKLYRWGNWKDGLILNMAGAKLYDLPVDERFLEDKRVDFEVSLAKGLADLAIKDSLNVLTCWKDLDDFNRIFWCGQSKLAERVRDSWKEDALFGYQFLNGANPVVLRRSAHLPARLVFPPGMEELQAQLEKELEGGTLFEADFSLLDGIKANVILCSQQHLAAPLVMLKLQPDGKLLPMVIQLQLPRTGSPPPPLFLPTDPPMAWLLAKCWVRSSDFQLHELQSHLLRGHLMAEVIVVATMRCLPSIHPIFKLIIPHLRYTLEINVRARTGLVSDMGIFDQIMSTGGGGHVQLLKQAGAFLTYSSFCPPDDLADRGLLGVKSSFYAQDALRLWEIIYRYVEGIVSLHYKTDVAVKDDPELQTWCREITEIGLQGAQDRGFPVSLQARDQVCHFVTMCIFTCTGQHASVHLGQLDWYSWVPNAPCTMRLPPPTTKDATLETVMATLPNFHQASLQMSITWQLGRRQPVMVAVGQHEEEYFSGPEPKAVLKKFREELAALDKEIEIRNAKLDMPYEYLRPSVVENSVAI
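Inhibition is scored from a chromogenic endpoint. After 15 min enzyme-compound contact, arachidonic acid (50 uM final) reacts 6 min with 40 nM 15hLO-1 at room temperature, then Fe-XO reagent is added for 30 min and absorbance ratio recorded.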
HBB splicing: alters splicing of the hemoglobin beta chain; HBB splicing reporter cell assay, activation; EGFP reporter with mutant IVS2-654 intron; response scale: normalised to 500 nM splice-correcting PNA; AID 925; actives 0.06% (n = 65,000); Potency, µM (top dose mostly 46.1 µM), without a hit: at the highest dose activation, hits mostly activators; note: potency is the fitted concentration of half-maximal effect; 0% is about no effect
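Compounds were applied for 2 days to HeLa EGFP-654 cells, 500/well in Optimem with 2% FCS. The reporter's EGFP is disrupted by mis-splicing of beta-globin intron IVS2-654. Readout: summed well GFP fluorescence from 488 nm laser scanning; reference was 500 nM antisense […] 654 PNA.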
Epigenetic mod: derepresses silenced GFP locus in mouse C127i cells. mouse C127i GFP locus derepression, cytometry, 30 h. actives 0.09% (n = 68,000). Potency, µM (doses to about 46.1 µM), without a hit: top-dose GFP derepression (activation); note: % of control where 0% means no effect
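Read-out is the number of GFP-positive cells, scored as fluorescent objects 20 to 120 um wide, reflecting derepression of a silenced CMV-GFP reporter in murine C127i cells after 30 h compound exposure at 37 C.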
Ub-GFP proteasome: proteasome inhibitors stabilizing ubiquitin-GFP reporter; Ubiquitin-GFP reporter cells, proteasome inhibition, GFP fluorescence; response scale: untreated = 0%, 10 µM MG-132 = 100%; Potency, µM (series often up to 45.9 µM), for inactives: at the top dose activation (GFP accumulation), hits mostly activators; 67,000 tested, under 10 active; active = well fitted activation curve with a large enough effect, not every such curve was filed as active; inconclusive = small, poorly fitted or top-dose-only effect, or another doubt; inactive = no such curve, though single readings can be large or run the other way; note: potency is the fitted concentration of half-maximal effect
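Proteasome blockade was scored as a rise in GFP-expressing U2OS cells carrying a ubiquitin(G76V)-GFP construct, imaged after 4 hr compound treatment at 37 °C across a 46 uM–2.9 nM series.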
CRE Fsk mod: CRE-bla signaling modulation under forskolin stimulation; Potency, µM (series often up to 38.2 µM), for the others: at the top dose activity change, negative = inhibition, hits mostly activators; AID 662; actives 2.5% (n = 71,000); CHO CRE-bla reporter (cAMP response element driving beta-lactamase), forskolin EC10, beta-lactamase ratio; active = well fitted activation curve with a large enough effect in the signal ratio, with a control signal flat, not every such curve was filed as active; inconclusive = small, poorly fitted or top-dose-only effect, or effect the other way, or a change in a side signal; the % refers to the signal ratio; note: potency is the fitted concentration of half-maximal effect; % of control where 0% means no effect
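Modulation of forskolin-driven signalling is measured in CHO cells carrying a CRE-controlled beta-lactamase reporter. Cells are stimulated with EC10 NKH 477 in the presence of titrated compound for 3 h at 37 °C, then loaded with CCF4 for 2 h at room temperature.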
* marks the source's active call; other numbers are inactive results; ? = inconclusive; . = no result given; & = joins results of further samples; [ ] = another dose, or the depositor's remark. Unless noted, calls come from the whole dose curve; as a rule, active = well fitted curve in the direction sought with a large enough effect; inconclusive = small, poorly fitted or top-dose-only effect, or another doubt; inactive = no such curve, though single readings can be large; an effect the other way counts as inactive or inconclusive. Only part of the results is shown; count on the stated rates, not on these rows.

SMILES	ERK AVP block	ALOX15 inhib	HBB splicing	Epigenetic mod	Ub-GFP proteasome	CRE Fsk mod
C[N+]1(C)C2CC(OC(=O)C(CO)c3ccccc3)CC1C1OC12 (stereo not given)	-3%	1%	.	.	.	.
CC1OC1P(=O)(O)O (stereo not given)	-8%	8%	.	.	.	.
C[C@]12CCC(=O)C[C@@H]1CC[C@@H]1[C@@H]2CC[C@]2(C)[C@@H](O)CC[C@@H]12	4%	0%	-1.1%	.	.	-4%
c1cnc(N2CC3(CCNCC3)C2)nc1	2%	0%	2.1%	0%[9.22 µM]	5%	-4%
COC(=O)CN1CN(c2ccccc2)C2(CCN(Cc3ccc4ccccc4c3)CC2)C1=O	-14%	-15%[25.6 µM]	.	0%	-1%	?
C[C@H]1CC[C@@]2(NC1)O[C@@H]1C[C@H]3[C@@H]4CC[C@@H]5C[C@@H](O)CC[C@@]5(C)[C@@H]4CC[C@]3(C)[C@@H]1[C@@H]2C	9%[25.7 µM]	2%[25.6 µM]	0.3%[20.6 µM]	2%[20.6 µM]	14%[20.5 µM]	2%[17.1 µM]
COc1ccc2c3c1OC1C[C@@H](O)C=C[C@@]31CCN(C)C2 (stereo not given in full)	-9%	-51%&8%[25.6 µM]	0.4%[20.6 µM]	-1%[20.6 µM]	-10%[20.5 µM]	-4%[17.1 µM]
C[N+]1(C)[C@@H]2CC(OC(=O)[C@@H](CO)c3ccccc3)C[C@@H]1[C@H]1O[C@H]12 (stereo not given in full)	5%[11.5 µM]	5%[11.4 µM]	-0.3%[9.22 µM]	-1%[9.22 µM]	-3%[9.17 µM]	0%[7.6 µM]
CN(C)[C@H]1C(=O)C(C(N)=O)=C(O)[C@]2(O)C(=O)C3=C(O)c4c(O)cccc4[C@@](C)(O)[C@H]3C[C@@H]12	-5%[25.7 µM]	18%[25.6 µM]	-0.6%[20.6 µM]	-1%[20.6 µM]	2%[20.5 µM]	-4%[17.1 µM]
CC(=O)OCC1=C(C(=O)O)N2C(=O)C(NC(=O)CCCC(N)C(=O)O)C2SC1 (stereo not given)	13%	-23%	.	.	.	.
C[C@@]12CCC(O)C[C@H]1CCC1C2CC[C@]2(C)C(=O)CCC12 (stereo not given in full)	?	-5%	.	.	.	.
O=C(O)CCCC[C@H]1SC[C@H]2NC(=O)N[C@@H]21	15%[25.7 µM]	7%[25.6 µM]	-0.3%[20.6 µM]	-2%[20.6 µM]	-2%[20.5 µM]	2%[17.1 µM]
CNCC[C@H](Oc1ccc(C(F)(F)F)cc1)c1ccccc1	?	?	-0.2%[20.6 µM]	0%	0%	?
[O-]/[N+](=C/c1cccnc1)c1ccc(Br)cc1	?	-16%[11.4 µM]	-0.5%[0.0738 µM]	0%	-2%[9.17 µM]	?
CC(C)NCC(O)COc1cccc2[nH]ccc12 (stereo not given)	-1%	?	.	0%[20.6 µM]	.	.
O=C(Nc1nc2ccccc2n1CCN1CCCC1)c1ccc(Cl)cc1	?	12%	-0.6%[9.22 µM]	0%	12%	-5%
O=C(O)CCCCC1SCC2NC(=O)NC21 (stereo not given)	41%[activator]	-3%	.	.	.	.
CN1CCN(C2=Nc3cc(Cl)ccc3Nc3ccccc32)CC1	11%	-8%	2.3%[20.6 µM]	2%[20.6 µM]	1%	?
C=CCc1ccc(OC)cc1	12%	?	1.0%	.	.	-2%
CN1CC(CNC(=O)OCc2ccccc2)CC2c3cccc4c3c(cn4C)CC21 (stereo not given)	-10%	-5%	.	.	.	.
C[C@@H]1O[C@H](O[C@H]2C[C@@H](O)[C@@]3(CO)[C@H]4[C@@H](O)C[C@]5(C)[C@@H](C6=CC(=O)OC6)CC[C@]5(O)[C@H]4CC[C@]3(O)C2)[C@@H](O)[C@H](O)[C@@H]1O	-3%[25.7 µM]	8%[25.6 µM]	-0.9%[20.6 µM]	6%[20.6 µM]	-2%[20.5 µM]	-2%[17.1 µM]

Retrieved by structure from the entries so far, 2 records:
SMILES	ERK AVP block	ALOX15 inhib	HBB splicing	Epigenetic mod	Ub-GFP proteasome	CRE Fsk mod
CC(C)NCC(O)COc1cccc2[nH]ccc12 (stereo not given)	-1%	?	.	0%[20.6 µM]	.	.
CN1CC(CNC(=O)OCc2ccccc2)CC2c3cccc4c3c(cn4C)CC21 (stereo not given)	-10%	-5%	.	.	.	.

Some of the entries so far, bar-delimited.
SMILES | ERK AVP block | ALOX15 inhib | HBB splicing | Epigenetic mod | Ub-GFP proteasome | CRE Fsk mod
C[C@H]1CC[C@@]2(NC1)O[C@@H]1C[C@H]3[C@@H]4CC[C@@H]5C[C@@H](O)CC[C@@]5(C)[C@@H]4CC[C@]3(C)[C@@H]1[C@@H]2C | 9%[25.7 µM] | 2%[25.6 µM] | 0.3%[20.6 µM] | 2%[20.6 µM] | 14%[20.5 µM] | 2%[17.1 µM]
COc1ccc2c3c1OC1C[C@@H](O)C=C[C@@]31CCN(C)C2 (stereo not given in full) | -9% | -51%&8%[25.6 µM] | 0.4%[20.6 µM] | -1%[20.6 µM] | -10%[20.5 µM] | -4%[17.1 µM]
C[N+]1(C)[C@@H]2CC(OC(=O)[C@@H](CO)c3ccccc3)C[C@@H]1[C@H]1O[C@H]12 (stereo not given in full) | 5%[11.5 µM] | 5%[11.4 µM] | -0.3%[9.22 µM] | -1%[9.22 µM] | -3%[9.17 µM] | 0%[7.6 µM]
CN(C)[C@H]1C(=O)C(C(N)=O)=C(O)[C@]2(O)C(=O)C3=C(O)c4c(O)cccc4[C@@](C)(O)[C@H]3C[C@@H]12 | -5%[25.7 µM] | 18%[25.6 µM] | -0.6%[20.6 µM] | -1%[20.6 µM] | 2%[20.5 µM] | -4%[17.1 µM]
CC(=O)OCC1=C(C(=O)O)N2C(=O)C(NC(=O)CCCC(N)C(=O)O)C2SC1 (stereo not given) | 13% | -23% | . | . | . | .
C[C@@]12CCC(O)C[C@H]1CCC1C2CC[C@]2(C)C(=O)CCC12 (stereo not given in full) | ? | -5% | . | . | . | .
O=C(O)CCCC[C@H]1SC[C@H]2NC(=O)N[C@@H]21 | 15%[25.7 µM] | 7%[25.6 µM] | -0.3%[20.6 µM] | -2%[20.6 µM] | -2%[20.5 µM] | 2%[17.1 µM]
CNCC[C@H](Oc1ccc(C(F)(F)F)cc1)c1ccccc1 | ? | ? | -0.2%[20.6 µM] | 0% | 0% | ?
[O-]/[N+](=C/c1cccnc1)c1ccc(Br)cc1 | ? | -16%[11.4 µM] | -0.5%[0.0738 µM] | 0% | -2%[9.17 µM] | ?
CC(C)NCC(O)COc1cccc2[nH]ccc12 (stereo not given) | -1% | ? | . | 0%[20.6 µM] | . | .
O=C(Nc1nc2ccccc2n1CCN1CCCC1)c1ccc(Cl)cc1 | ? | 12% | -0.6%[9.22 µM] | 0% | 12% | -5%
O=C(O)CCCCC1SCC2NC(=O)NC21 (stereo not given) | 41%[activator] | -3% | . | . | . | .
